Sfp inh – blocks B. subtilis Sfp PPTase activity. Q9F4F7. Biochemical Sfp PPTase activity, qHTS. Potency, µM, inactives show max response, negative = inhibition, hits mostly inhibitors. hit rate 3.5% among 310,000. AID 1490; active = well fitted inhibition curve with a large enough effect; inconclusive = small, poorly fitted or top-dose-only effect, or another doubt; inactive = no such curve, though single readings can be large or run the other way;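 also: the enzyme is Sfp with the accession as filed and its product quenches rhodamine fluorescence; potency is read from the fitted curve at half-maximal effect; 0% = enzyme reaction without inhibitor and -100% = no enzyme wells; top concentration of the series not given in the record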
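Reaction rates are the 30-min fluorescence difference (ex 525, em 598 nm) in wells containing 15 nM Sfp, 5 uM rhodamine-CoA and 12.5 uM BHQ-2-YbbR at pH 7.6 with 10 mM MgCl2.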
Menin MLL FP FL – inhibitors of human menin-MLL interaction, wild-type MLL peptide | AID 1766 | Fluorescence polarization, fluorescein-MLL peptide displacement from menin | 290,000 tested, under 10 active | FP activity change, % at 61.4 µM; inconclusive = falling polarisation curve, or a change in total fluorescence; inactive = total fluorescence flat and polarisation flat or rising; no compound was filed as active; the % refers to the polarisation; negative = inhibition;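 also: % of control where 0% means no effect; inhibitors lower the polarisation; unlabelled MLL peptide was the positive control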
CtBP-E1A inh – inhibitors of CtBP/E1A interaction; activity change, % (no concentration beside the values); AID 651724; hit rate 0.49% among 340,000; AlphaScreen GST-E1A/His-CtBP binding, 1536-well; active compounds read low; control for the full effect not named in the record; in the data active means activity change below about -65%; inconclusive means about -30% to -65%; inactive means above about -30%; also: % is scaled to controls: 0 for no effect and ±100 for the full control effect
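GST-E1A and His-tagged CtBP (125 nM each as 5X stock) were preincubated with pin-transferred compound for 2 h at 37 °C in the dark, then glutathione donor and nickel acceptor beads were added for 1 h before AlphaScreen reading.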
ClpP mod – qHTS Assay for Activators of ClpP. purified B. subtilis ClpP, FRET peptide cleavage, 20 min. Potency, µM (doses to about 57.5 µM), inactives show top-dose activity change, negative = active. hit rate 1.9% among 340,000. AID 651965, 2013; active = well fitted falling curve with a large enough effect; inconclusive = small, poorly fitted or top-dose-only effect; inactive = no such curve, though single readings can be large or run the other way; also: potency is read from the fitted curve at half-maximal effect; the source files actives as falling curves though it sought activators and does not explain the sign; nearly all actives have a fitted effect of over 65% in size; many hits overshoot -100%
Target sequence (P80244 whole entry, looked up): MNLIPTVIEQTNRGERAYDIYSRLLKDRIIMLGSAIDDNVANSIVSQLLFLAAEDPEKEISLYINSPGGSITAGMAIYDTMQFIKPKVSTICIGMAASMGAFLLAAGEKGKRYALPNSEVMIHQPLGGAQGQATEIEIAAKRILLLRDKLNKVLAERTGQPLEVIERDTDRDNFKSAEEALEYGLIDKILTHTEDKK
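Purified B. subtilis ClpP, 10 microg/mL final in Tris/HCl pH8 with KCl, BSA, glycerol and Tween-20, cleaved an Abz/nitrotyrosine-quenched decapeptide. Fluorescence (ex 320, em 430) was read at 0 and 20 min at room temperature. Delta was normalized to 5.8 microM ADEP and DMSO/no-enzyme controls.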
gsp ag – gsp mutant agonism; gsp mutant cells, cAMP HTRF, 30 min; control for the full effect not named in the record; Potency, µM (highest dose often 76.9 µM), inactives show at the top dose activation (cAMP increase), actives largely listed as activators; hit rate 0.13% among 340,000; active = well fitted activation curve with a large enough effect; inconclusive = small, poorly fitted or top-dose-only effect, or another doubt; inactive = no such curve, though single readings can be large or run the other way; cell line not stated here;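 also: phosphodiesterase inhibitor Ro 20-1724 added with compounds to block cAMP breakdown; potency is read from the fitted curve at half-maximal effect; nearly all actives have a fitted effect of over 60% in size; about a fifth of the inactives were tested at one dose only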
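Cells stably selected in G418 were plated at 2000/well, grown 16-24 hr, then given compounds in DMSO with the PDE inhibitor […] (300 uM solution added) for 30 min at 37C; cAMP was read by HTRF.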
gsp antagonist – antagonists of gsp mutant (McCune-Albright syndrome) | hit rate 0.4% among 340,000 | AID 624288 | gsp-mutant cells, cAMP HTRF, 30 min; control for the full effect not named in the record | Potency, µM (doses to about 76.9 µM), without a hit: top-dose activity change, negative = inhibition, hits mostly inhibitors; active = falling curve of any shape with a large fitted effect; inconclusive = falling curve, mostly with a smaller effect; inactive = flat or rising curve; cell line not stated here;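 also: intracellular cAMP measured with PDE inhibitor Ro 20-1724 present during compound exposure; potency is read from the fitted curve at half-maximal effect; % is scaled to controls: 0 for no effect and ±100 for the full control effect; nearly all actives have a fitted effect of over 65% in size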
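HTRF cAMP read-out (cAMP-d2 plus anti-cAMP antibody-K in lysis buffer, 30 min RT). Before lysis, cells are exposed to compounds with […] for 30 min at 37C in DPBS containing Ca/Mg, BSA and Tween 20.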
TRPV1 PAM – potentiators of human vanilloid receptor 1 (TRPV1). Q8NER1. TRPV1-expressing cells, Fluo-8 calcium influx, capsaicin EC20 potentiation; host cell line not named in the record; control for the full effect not named in the record. potentiation, % at 8.33 µM. hit rate 0.02% among 320,000. AID 540277; active means potentiation above 80%; inconclusive means 30% to 80%; inactive means below 30%; also: 0% is about no effect
Target sequence (Q8NER1 whole entry, looked up): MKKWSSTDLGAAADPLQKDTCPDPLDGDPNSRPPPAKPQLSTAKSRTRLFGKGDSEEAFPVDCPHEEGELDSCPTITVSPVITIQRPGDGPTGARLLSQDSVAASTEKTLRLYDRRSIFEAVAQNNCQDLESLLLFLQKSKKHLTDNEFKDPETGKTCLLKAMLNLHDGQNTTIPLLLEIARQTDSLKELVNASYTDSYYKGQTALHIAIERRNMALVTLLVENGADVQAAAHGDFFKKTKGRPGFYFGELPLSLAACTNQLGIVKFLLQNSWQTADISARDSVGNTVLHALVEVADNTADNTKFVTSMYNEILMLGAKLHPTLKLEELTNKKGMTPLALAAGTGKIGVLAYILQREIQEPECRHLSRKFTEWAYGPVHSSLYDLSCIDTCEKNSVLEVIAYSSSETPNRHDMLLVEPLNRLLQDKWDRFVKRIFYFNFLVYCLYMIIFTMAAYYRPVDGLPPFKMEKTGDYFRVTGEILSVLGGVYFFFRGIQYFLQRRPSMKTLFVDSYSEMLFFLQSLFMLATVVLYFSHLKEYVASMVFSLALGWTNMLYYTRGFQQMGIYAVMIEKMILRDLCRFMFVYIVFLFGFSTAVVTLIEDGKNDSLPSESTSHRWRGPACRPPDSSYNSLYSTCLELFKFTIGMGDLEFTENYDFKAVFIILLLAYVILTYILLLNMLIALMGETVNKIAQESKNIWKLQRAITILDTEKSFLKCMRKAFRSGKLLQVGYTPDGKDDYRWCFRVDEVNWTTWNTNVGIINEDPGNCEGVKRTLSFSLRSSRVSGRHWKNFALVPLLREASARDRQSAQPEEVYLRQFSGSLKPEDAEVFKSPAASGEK
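TRPV1-expressing cells were cultured overnight at 35.5C and loaded with Fluo-8 calcium dye for 40 to 90 min at room temperature. After a 10 s baseline, compound was added and calcium influx was read kinetically for 3 min (ex 480/em 520 nm).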
The depositor's hits bear a star; ? = inconclusive; · = not tested or not shown; & = joins results of further samples; ! = a repeat was not active; [ ] = another dose, or the depositor's remark.

SMILES	Sfp inh	Menin MLL FP FL	CtBP-E1A inh	ClpP mod	gsp ag	gsp antagonist	TRPV1 PAM
Cc1ccc(C(=O)CC2(O)C(=O)N(CCc3ccccc3)c3ccc(Br)cc32)o1 (stereo not given)	7.94µM*	3.2	-22.5	-5.0%	-2.8%	-13.0%	-14.3
COc1cc(C(=O)Nc2nnc(CC(=O)NCc3ccccc3)s2)cc(OC)c1OC	16.4%	3.4	-5.5	-7.3%	-6.6%	-9.6%	10.5
C#CCOCCOCCOCCNc1nc(N2CCN(C(=O)[C@H]([C@@H](C)CC)n3cc([C@@H](N)CC(C)C)nn3)CC2)nc(N2CCN(C(=O)[C@H]([C@@H](C)CC)n3cc([C@@H](N)CC(C)C)nn3)CC2)n1	9.3%	-0.4	-10.7	-0.8%	·	2.6%	22.1
O=S(=O)(c1cnccc1N1CCN(/N=C/c2ccc(Cl)cc2)CC1)N1CCCCC1	10.5%	1.3	4.2	-1.2%	9.8%	-7.2%[15.4 µM]	3.4
CCN1CCN(CCCOc2ccc(-c3ccccc3)cc2)CC1	-16.4%	-1.1	-8.8	1.4%	-31.9%[inhibitor]	14.1%	11.9
Nc1cc(N)nc(SCC(=O)Nc2cc(S(=O)(=O)N3CCOCC3)ccc2Cl)n1	1.2%	·	-3.5	-2.0%	16.2%	3.1%	10.8
O=C(CSc1nnc(-c2ccco2)o1)NC1CCCCCC1	5.4%	0.6	2.8	0.9%	18.9%	3.1%	-0.5
CN(C(=O)CN1C(=O)S/C(=C\c2ccccc2Cl)C1=O)C1CCS(=O)(=O)C1 (stereo not given)	-3.6%	2.2	-7.9	-1.5%	?	-2.1%	3.4
Cc1ccc(/C=C(\C#N)C(=O)Nc2c(C)cccc2C)s1	-3.8%	?	-17.7	-2.2%	-2.2%	-13.2%	-5.3
NC(N)=Nc1nc2ccc([N+](=O)[O-])cc2[nH]1	3.6%	-7.7	·	1.1%	?	2.1%	17.0
CCCCC1=CC2=C(c3ccco3)C(=O)C(C)(OC(=O)c3ccc(OC)cc3)C(=O)C2=CN1Cc1ccc(OC)cc1 (stereo not given)	70.8µM*!	?	·	·	·	·	-27.3
CN(C(=O)c1ccccc1C(=O)OCC(=O)Nc1ccc(S(N)(=O)=O)cc1)c1ccccc1	·	·	6.0	·	6.5%[15.4 µM]	-5.0%	21.5
C=CCc1ccccc1OCC(=O)NNC(=S)NCc1ccccc1	22.3%	·	-0.1	0.5%	-19.6%	1.4%	17.0
CCC(c1nnc(SCC(=O)NC23CC4CC(CC(C4)C2)C3)o1)N(C)C (stereo not given)	12.1%	-0.2	3.0	0.7%	2.0%	-2.7%	1.9
Cc1nc2cc(NS(=O)(=O)c3ccc(Br)cc3)ccc2n1C	-13.3%	-4.0	4.4	·	?	-19.6%	5.8
CCOC(=O)c1ccc2ncc(-c3ccccc3)nc2c1	3.7%	4.7	4.1	·	-0.7%[15.4 µM]	-1.1%	4.7
Cc1cc(C)c2nc(Cl)c(Cl)nc2c1	3.6%	7.0	11.9	·	0.1%	-1.7%	·
CC(NC(=O)C1CCC(CNS(=O)(=O)c2ccccc2)CC1)c1ccccc1 (stereo not given)	5.3%	7.9	11.5	-1.1%	0.6%[15.4 µM]	-24.8%	-13.0
Clc1ccc2c(c1)Nc1ccccc1CC2	·	·	7.6	-1.3%	-10.5%[15.4 µM]	-17.1%	·
O=C(c1c(F)cccc1F)N1CCN=C1SCc1ccccc1	-1.1%	4.1	-0.2	-0.1%	-26.8%	?	-24.4
CCc1nc(C)cc2c1sc1ccccc12	-25.8%	18.0	16.5	·	2.8%[15.4 µM]	2.2%	-7.0
CC(=O)Nc1ccc(NC(=O)CSc2ccc3nnc(-c4cccnc4)n3n2)cc1	0.6%	·	-22.3	-1.9%	?	11.8%	13.1
CCC1CCCCN1C(=O)c1c[nH]c2ccc(S(=O)(=O)N(C)c3ccc(Cl)cc3)cc2c1=O (stereo not given)	-0.4%	3.0	8.7	-0.1%	-9.7%	?	-1.6
CCOc1ccccc1NC(=O)C(OC(=O)c1ccc(N(C)C)cc1)c1ccccc1 (stereo not given)	10.4%	3.9	-1.0	?	-3.7%	-17.4%	19.3
O/N=C1/CCSc2ccccc21	-1.7%	-1.6	12.8	-4.0%	-4.8%	9.3%	24.3

Full records as entered above. Order of screens: Sfp inh	Menin MLL FP FL	CtBP-E1A inh	ClpP mod	gsp ag	gsp antagonist	TRPV1 PAM
Results for `COc1cc(C(=O)Nc2nnc(CC(=O)NCc3ccccc3)s2)cc(OC)c1OC` : 16.4%	3.4	-5.5	-7.3%	-6.6%	-9.6%	10.5
Results for `O=C(CSc1nnc(-c2ccco2)o1)NC1CCCCCC1` : 5.4%	0.6	2.8	0.9%	18.9%	3.1%	-0.5
Results for `CC(=O)Nc1ccc(NC(=O)CSc2ccc3nnc(-c4cccnc4)n3n2)cc1` : 0.6%	·	-22.3	-1.9%	?	11.8%	13.1
Results for `CCN1CCN(CCCOc2ccc(-c3ccccc3)cc2)CC1` : -16.4%	-1.1	-8.8	1.4%	-31.9%[inhibitor]	14.1%	11.9
Results for `C=CCc1ccccc1OCC(=O)NNC(=S)NCc1ccccc1` : 22.3%	·	-0.1	0.5%	-19.6%	1.4%	17.0

Returning to the listing, starting 2 compounds before the break.
SMILES	Sfp inh	Menin MLL FP FL	CtBP-E1A inh	ClpP mod	gsp ag	gsp antagonist	TRPV1 PAM
CCOc1ccccc1NC(=O)C(OC(=O)c1ccc(N(C)C)cc1)c1ccccc1 (stereo not given)	10.4%	3.9	-1.0	?	-3.7%	-17.4%	19.3
O/N=C1/CCSc2ccccc21	-1.7%	-1.6	12.8	-4.0%	-4.8%	9.3%	24.3
CC(=O)COc1ncnc2c(Cl)cc(Cl)cc12	6.2%	-0.1	7.5	·	-1.7%	0.2%	4.5
CC(=O)N1CCN=C1SCc1cccc(C(F)(F)F)c1	13.5%	3.7	7.5	0.7%	-26.2%	-17.4%	-1.9
O=C(COC(=O)c1ccc(NS(=O)(=O)c2cccs2)cc1)NCC1CCCO1 (stereo not given)	0.0%	-0.9	-2.7	·	-6.8%[15.4 µM]	-18.5%	0.2
COc1ccccc1NC(=O)Nc1cc(F)ccc1F	11.2%	-3.9	8.7	-2.2%	-66.2%[inhibitor]	-11.2%	-24.8
CC(=O)c1ccc(COC(=O)Cc2ccc([N+](=O)[O-])cc2)cc1	-3.1%	2.3	·	0.9%	-11.3%	-9.4%	-26.5
Cn1c(=O)oc2cc(S(=O)(=O)N3CCCC(C(=O)NCCN4CCOCC4)C3)ccc21 (stereo not given)	21.8%	4.1	0.1	0.6%	?	8.6%	-1.1
Cc1ccc2nc(C)cc(Nc3ccc([N+](=O)[O-])cc3)c2c1	-5.6%	1.2	-7.4	·	6.2%	7.3%	6.0
O=C(CSCc1ccccc1)Nc1ccccc1	-2.9%	-11.3	0.0	4.5%	-26.3%[15.4 µM]	-3.7%	7.3
c1cncc(-c2nc(NCc3cccs3)c3ccccc3n2)c1	79.4µM*!	-5.3&0.6	0.3	-1.2%	24.0%[15.4 µM]	-49.8%	1.9
O=C(O)/C(CC(=O)c1ccc(Cl)cc1)=N/Nc1ccc([N+](=O)[O-])cc1[N+](=O)[O-]	1.9%	-4.3	-16.1	-0.8%	-97.3%[inhibitor]	-4.5%	-18.1
CCC(C)c1ccccc1N1CC(C(=O)NCCCn2nc(C)cc2C)CC1=O (stereo not given)	·	·	4.9	-0.9%	0.2%	9.4%	-14.9
CC(c1ccccc1)N1C(=O)CC(Sc2ncccc2C(=O)O)C1=O (stereo not given)	11.9%	2.4	7.7	-1.4%	-9.3%	4.6%	19.0
CCCC[C@@H]1CCCO[C@@](C(=O)NCc2ccccn2)(C(F)(F)F)C1	10.4%	1.2	6.6	-1.4%	30.1%	-2.9%	·
COc1ccc(N=c2cc(-c3ccc(O)cc3)oc3ccccc23)cc1	-14.7%	?	-14.7	·	-2.7%[15.4 µM]	-21.8%	2.5
COc1ccc(-c2cnc(SCC(=O)Nc3ccc4c(c3)OCO4)n2Cc2ccco2)cc1	-7.7%	-1.9	?	-2.7%	0.5%[15.4 µM]	-30.8%	2.6
O=C(Cc1ccc(-n2cccc2)cc1)NC1CCCCCC1	24.3%	4.1	-9.4	-1.4%	-7.5%	8.9%	-6.3
O=C(NC1CCN(C(=O)Nc2ccccc2Cl)CC1)c1ccco1	14.1%	-1.1	6.5	·	19.9%	6.4%	-6.9
COc1cccc(-c2nc(CS(=O)(=O)CC(=O)Nc3ccc(C(C)=O)cc3)c(C)o2)c1	12.2%	·	2.9	-1.1%	-24.2%	-21.7%	27.1
O=C(CCN1CCN(c2ccccc2F)CC1)Nc1ccc2c(c1)OCO2	12.6%	-1.0	4.2	0.4%	-60.6%[inhibitor]	11.6%	-19.9
O=C1C(=O)N(CCCn2ccnc2)C(c2cccc(Br)c2)/C1=C(\O)c1ccc2c(c1)OCCO2 (stereo not given)	5.3%	-0.8	-16.0	-3.7%	11.2µM*	-5.1%	6.6
CCCCNC(=O)c1cc2ccccc2s1	6.2%	-0.5	6.3	·	7.2%[15.4 µM]	4.8%	-17.7
CCOc1ccc(NC(=O)c2cc3c(=O)n(C)c4ccccc4c3n2C)cc1	16.0%	-1.1	5.2	69.0%	15.6%	-17.1%	0.6
O=C(CSc1oc(-c2ccco2)nc1S(=O)(=O)c1ccc(F)cc1)NCC1CCCO1 (stereo not given)	-11.8%	-1.9	-12.3	-4.2%	-44.2%[inhibitor]	-4.8%	-11.6

Assay outcomes deposited in PubChem BioAssay by National Center for Advancing Translational Sciences (NCATS).

Rows were taken by chance, and some 5.3% of all compounds hit somewhere here.
